# Source: PubChem
# gsp agonist: activates gsp, the McCune-Albright syndrome mutation; gsp mutant cells, cAMP HTRF, 30 min; control for the full effect not named in the record; Potency, µM (top dose mostly 76.9 µM), for the others: top-dose activation (cAMP increase), actives largely listed as activators; 340,000 compounds, 0.13% hits; AID 624287; active = well fitted activation curve with a large enough effect; inconclusive = small, poorly fitted or top-dose-only effect, or another doubt; inactive = no such curve, though single readings can be large or run the other way; cell line not stated here;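 further: phosphodiesterase inhibitor Ro 20-1724 added with compounds to block cAMP breakdown; potency means the concentration at half of the fitted maximal effect; nearly all actives have a fitted effect of over 60% in size; about a fifth of the inactives were tested at one dose only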
#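 Cells stably selected in G418 were plated at 2000/well, grown 16-24 hr, then given compounds in DMSO with the PDE inhibitor […] (300 uM solution added) for 30 min at 37C; cAMP was read by HTRF.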
# Sfp PPTase inh: blocks B. subtilis Sfp PPTase activity | AID 1490 | Q9F4F7 | Potency, µM, inactives show max response, negative = inhibition, hits mostly inhibitors | 310,000 compounds, 3.5% hits | Biochemical Sfp PPTase activity, qHTS; active means well fitted inhibition curve with a large enough effect; inconclusive means small, poorly fitted or top-dose-only effect, or another doubt; inactive means no such curve, though single readings can be large or run the other way;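 further: the enzyme is Sfp with the accession as filed and its product quenches rhodamine fluorescence; potency means the concentration at half of the fitted maximal effect; 0% = enzyme reaction without inhibitor and -100% = no enzyme wells; top concentration of the series not given in the record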
#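 Sfp 15 nM + cpd, 15 min RT; start w/ rhodamine-CoA 5 uM, BHQ-2-YbbR 12.5 uM (final); 50 mM Hepes pH 7.6, 10 mM MgCl2, 0.01% NP-40, 0.01% BSA; read 525/598 nm at 0 and 30 min.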
# TRPV1 potentiator: potentiators of human vanilloid receptor 1 (TRPV1); potentiation, % at 8.33 µM; Q8NER1; TRPV1-expressing cells, Fluo-8 calcium influx, capsaicin EC20 potentiation; host cell line not named in the record; control for the full effect not named in the record; 320,000 compounds, 0.02% hits; AID 540277; active means potentiation above 80%; inconclusive means 30% to 80%; inactive means below 30%; further: 0% is about no effect
#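 Cells expressing TRPV1 were dye-loaded with Fluo-8 and read kinetically: 10 s baseline, 3 min after compound (agonist portion), then 2 min after EC20 capsaicin (allosteric enhancer portion). Calcium-bound dye fluorescence at 480/520 nm.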
# TRPML1 inh: inhibitors of human TRPML1 channel | Q9GZU1 | TRPML1-inducible cells, Ca2+ dye fluorescence, FDSS; active compounds read low; inhibition of EC80 agonist-evoked calcium signal | activity change, negative = inhibition, % (concentration not given with the values) | 390,000 compounds, 0.02% hits; in the data active means activity change below about -50%; inconclusive means about -30% to -50%; inactive means above about -30%;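 further: stimulus is agonist 54-4 at its EC80 concentration; on the % scale 0 is the no-effect control and ±100 the full control effect; the text of the record puts the active cut at -80%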
# Target sequence (Q9GZU1 whole entry, looked up): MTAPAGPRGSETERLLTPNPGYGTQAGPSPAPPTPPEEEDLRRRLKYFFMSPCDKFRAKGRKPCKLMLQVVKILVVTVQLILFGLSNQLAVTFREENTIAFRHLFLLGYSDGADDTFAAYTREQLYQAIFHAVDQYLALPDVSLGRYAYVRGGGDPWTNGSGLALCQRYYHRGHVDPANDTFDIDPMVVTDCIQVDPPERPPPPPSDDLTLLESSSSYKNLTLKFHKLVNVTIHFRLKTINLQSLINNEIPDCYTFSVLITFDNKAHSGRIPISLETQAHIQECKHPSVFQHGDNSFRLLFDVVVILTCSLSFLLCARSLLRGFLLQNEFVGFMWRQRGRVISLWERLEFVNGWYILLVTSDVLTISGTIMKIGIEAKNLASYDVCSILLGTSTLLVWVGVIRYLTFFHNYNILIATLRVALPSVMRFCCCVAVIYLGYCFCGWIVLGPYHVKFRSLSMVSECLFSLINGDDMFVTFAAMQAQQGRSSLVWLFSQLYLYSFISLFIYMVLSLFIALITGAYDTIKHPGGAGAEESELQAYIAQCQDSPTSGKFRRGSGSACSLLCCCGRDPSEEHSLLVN
#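 TRPML1-DL cells, Tet-induced overnight (~16 h, 37 °C) at 1,500 cells/well, were loaded with Ca8 no-wash dye plus quencher for 45-90 min at room temperature. Compounds were pinned during FDSS kinetic reading; agonist 54-4 at EC80 (4 uM final) then added.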
# Menin MLL FP FL: inhibitors of human menin-MLL interaction, wild-type MLL peptide; FP activity change, % at 61.4 µM; AID 1766; Fluorescence polarization, fluorescein-MLL peptide displacement from menin; 290,000 tested, under 10 active; inconclusive = falling polarisation curve, or a change in total fluorescence; inactive = total fluorescence flat and polarisation flat or rising; no compound was filed as active; the % refers to the polarisation; negative = inhibition;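 further: % of control where 0% means no effect; inhibitors lower the polarisation; unlabelled MLL peptide was the positive control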
# gsp antag: antagonists of gsp mutant (McCune-Albright syndrome); Potency, µM (top dose mostly 76.9 µM), inactives show at the top dose activity change, negative = inhibition, most hits filed as inhibitors; gsp-mutant cells, cAMP HTRF, 30 min; control for the full effect not named in the record; 340,000 compounds, 0.4% hits; active = falling curve of any shape with a large fitted effect; inconclusive = falling curve, mostly with a smaller effect; inactive = flat or rising curve; cell line not stated here;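 further: intracellular cAMP measured with PDE inhibitor Ro 20-1724 present during compound exposure; potency means the concentration at half of the fitted maximal effect; on the % scale 0 is the no-effect control and ±100 the full control effect; nearly all actives have a fitted effect of over 65% in size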
#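 HTRF cAMP read-out (cAMP-d2 plus anti-cAMP antibody-K in lysis buffer, 30 min RT). Before lysis, cells are exposed to compounds with […] for 30 min at 37C in DPBS containing Ca/Mg, BSA and Tween 20.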
# ClpP mod: qHTS Assay for Activators of ClpP; 340,000 compounds, 1.9% hits; ATP-dependent Clp protease proteolytic subunit (Bacillus subtilis (strain 168)), P80244; purified B. subtilis ClpP, FRET peptide cleavage, 20 min; Potency, µM (doses to about 57.5 µM), for inactives: at the highest dose activity change, negative = active; active = well fitted falling curve with a large enough effect; inconclusive = small, poorly fitted or top-dose-only effect; inactive = no such curve, though single readings can be large or run the other way; further: potency means the concentration at half of the fitted maximal effect; the source files actives as falling curves though it sought activators and does not explain the sign; nearly all actives have a fitted effect of over 65% in size; many hits overshoot -100%
# Target sequence (P80244 whole entry, looked up): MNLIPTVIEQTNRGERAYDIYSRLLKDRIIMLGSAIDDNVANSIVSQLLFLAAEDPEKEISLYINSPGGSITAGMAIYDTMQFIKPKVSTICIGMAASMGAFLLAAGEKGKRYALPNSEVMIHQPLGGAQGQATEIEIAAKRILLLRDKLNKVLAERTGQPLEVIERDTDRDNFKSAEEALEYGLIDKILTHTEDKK
#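 ClpP 10 microg/mL final, pH 8 Tris/KCl buffer with BSA, glycerol, Tween-20; compound pinned in; FRET-FV substrate; RT 20 min; Ex320/Em430; ΔFRET vs ADEP 5.8 microM, DMSO, no enzyme.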
# The depositor's hits bear a star; ? = inconclusive; nt = not tested or not shown; [ ] = remark or other dose.
smiles | gsp agonist | Sfp PPTase inh | TRPV1 potentiator | TRPML1 inh | Menin MLL FP FL | gsp antag | ClpP mod
COc1cc2nc(CN3CCC(C(O)(c4ccccc4)c4ccccc4)CC3)[nH]c(=O)c2cc1OC | 2%[15.4 µM] | 8% | 3 | 7 | -0.9 | -13% | 1.4%
COc1ccc(/C=C/C(=O)N(c2ccccn2)C2CCCCC2)cc1OC | -44%[inhibitor] | 14% | 1 | 2 | 0.0 | -21% | -4.7%
O=C(O)COc1ccc2c(-c3ccccc3)cc(=O)oc2c1 | 18% | 18% | 11 | 1 | 9.3 | -2% | -9.2%
COc1ccc(CCN(CC(=O)NCc2ccc(F)cc2)C(=O)c2snc(C(N)=O)c2N)cc1OC | ? | 15% | 2 | -2 | -0.9 | -4% | nt
COc1cccc(-c2nc(CS(=O)(=O)CC(=O)N3CCc4ccccc43)c(C)o2)c1 | 23% | 7% | -13 | 8 | 4.4 | -18% | -2.7%
CCCC1Nc2ccc(C(=O)O)cc2C2C=CCC12 (stereo not given) | -1% | ? | 2 | -16 | ? | 3% | -12%
CC(=O)c1cc2c(cc1NC(=O)c1ccccc1C)OCO2 | nt | -6% | 0 | nt | -0.4 | nt | nt
C=CCNC(=O)Cc1ccc(S(=O)(=O)N2CCOCC2)s1 | 2% | nt | 3 | -8 | nt | 2% | -13%
O=C(NCNC(=O)c1ccccc1)c1ccccc1 | 0% | 6% | -13 | -12 | 1.3 | 3% | -1.8%
COc1ccc2oc(C(=O)C3CC3)c(N)c2c1 | -53%[inhibitor] | 11% | -18 | 6 | 3.4 | -2% | ?
CC1(C)C/C(=N/Nc2ccc([N+](=O)[O-])cc2[N+](=O)[O-])C(C)(C)O1 | 2%[15.4 µM] | nt | nt | -12 | nt | -12% | 0.2%
O=C(NC(=S)NNC(=O)c1ccccc1O)c1cccnc1 | 6% | 3% | -3 | 11 | -6.0 | -2% | -0.2%
Cc1ccccc1OCC(=O)NNC(=O)CSc1nc(N)cc(N)n1 | 14%[15.4 µM] | -11% | -4 | -10 | 2.5 | 3% | nt
Cc1ccc(OCC(=O)OCc2c(C)noc2C)cc1C | -1% | 14% | 4 | 3 | 3.5 | 1% | -0.4%
O=C(c1cc(F)cc2c1OCOC2)N1CCN(c2ccc(F)cc2)CC1 | -10%[15.4 µM] | 5% | 7 | -2 | -1.1 | -3% | 0.0%
CCN(CC)CCn1c(-c2ccccc2)nc(=S)c2c1CC(C)(C)OC2 | 22% | 14% | 2 | -10 | 0.6 | 3% | 1.0%
COc1ccc(C2CC(=O)C3=C(C2)Nc2ccccc2N(C(=O)CCC(=O)O)C3c2ccc(F)cc2)cc1OC (stereo not given) | 8%[15.4 µM] | -2% | -8 | -6 | 0.7 | 7% | nt
O=S1(=O)CCOC[C@H](Cc2ccccc2)N1Cc1cccc(F)c1 | 16% | nt | nt | 1 | nt | 1% | 0.1%
COc1ccc(Br)cc1/C=N/N1CCN(Cc2ccccc2)CC1 | -59%[inhibitor] | 7% | -1 | -16 | -4.1 | 1% | nt
COC(=O)Cc1c(C)c2ccc(OCC(=O)NCc3ccc4c(c3)OCO4)cc2oc1=O | 15% | -1% | -12 | -8 | -0.4 | -2% | 32µM*
COc1ccccc1CNS(=O)(=O)c1csc(C(N)=O)c1 | 17% | 18% | -11 | -8 | 2.3 | 9% | -2.1%
O=C(Cn1c(=O)oc2ccccc21)Nc1nc(-c2ccccc2)cs1 | -1% | 2% | 9 | 10 | 0.5 | 5% | 0.2%
COC(=O)C1Cc2c([nH]c3ccccc23)C2CCC(=O)N12 (stereo not given) | 12% | nt | nt | 15 | nt | nt | -3.6%
O=C(NCc1ccc(F)cc1)C(C(=O)NCc1ccc(F)cc1)c1ncc(C(F)(F)F)cc1Cl | -48%[inhibitor] | -23% | -5 | 8 | -1.0 | 3% | -0.6%
O=C(c1cc([N+](=O)[O-])ccc1Cl)N1CCN(Cc2ccccc2)CC1 | 2% | -11% | -1 | 3 | 3.3 | 7% | -0.2%
CC1CCCN(S(=O)(=O)c2cc(C(=O)NCCc3ccc(S(N)(=O)=O)cc3)ccc2Cl)C1 (stereo not given) | 15% | nt | nt | 7 | nt | -30% | -1.3%
COC(=O)C1C(=O)c2c([nH]c(C(=O)OCC3CCCO3)c2C)CC1C (stereo not given) | -15% | 19% | 23 | -11 | 3.3 | -4% | -2.0%
COCC(C)NCc1ccc(C)cc1C (stereo not given) | 26% | -26% | ? | 2 | -0.4 | -4% | -1.6%
c1ccc(C2=Nn3c(nnc3-c3ccccn3)SC2)cc1 | -24% | -25% | -12 | 51 | 9.3 | 2% | 1.1%
COCCNC(=O)C(c1ccc(C)o1)N(C(=O)c1snc(C(N)=O)c1N)c1cc(C)cc(C)c1 (stereo not given) | -10% | -5% | -6 | -4 | 0.9 | -12% | -25%
CCOC(=O)CC(=O)CSc1nc2ccccc2c(=O)n1-c1ccc(C(=O)N2CCOCC2)cc1 | -43%[inhibitor] | -2% | -10 | -3 | -2.3 | 0% | -0.7%
CCCc1cc(C(=O)OC)c(NC(=O)c2cc(C)on2)s1 | -5% | -5% | -10 | -24 | 0.0 | -12% | 14%
Cc1nc2nc(SCC(=O)NCCCN3CCCCCC3)nn2c(C)c1Cc1ccccc1 | -1% | -7% | 9 | 6 | 2.4 | 3% | nt
CCOC(=O)c1nn(-c2ccc(Cl)cc2C)ccc1=O | 5% | -4% | -12 | -1 | 1.7 | 8% | -1.7%
COc1ccc2cc(C(=O)O)n(CC(=O)c3ccccc3)c2c1 | 4% | 6% | -14 | 30 | 0.0 | -23% | -1.4%
O=c1c(N2CCOCC2)c(N2CCOCC2)c1=O | -30% | -13% | -29 | 20 | 1.6 | 12% | 1.1%
O=C(NNc1cccc(Cl)n1)c1cccnc1Cl | -3% | 0% | 2 | -10 | nt | -4% | -0.5%
COCCn1c(-c2ccc(Br)cc2)csc1=Nc1cccnc1 | 15%[15.4 µM] | -3% | -7 | 35 | -0.5 | -78% | nt
COc1ccc(CNC(=O)C2CCN(c3nn4c(=O)cc(C)nc4s3)CC2)cc1 | 24% | 10% | 7 | 2 | 2.3 | 8% | -2.1%
CC1=C(OC(=O)c2ccc(Br)cc2)C(C)(C)C(c2ccccc2)OC1=O (stereo not given) | 3% | -2% | 1 | 22 | -1.4 | -10% | -2.1%
COC(=O)C1=C(NC(=O)c2ccccc2[N+](=O)[O-])CCS1 | -4% | 2% | -1 | -6 | -3.1 | -13% | nt
O=S(=O)(NCC1CCCO1)c1cccc(S(=O)(=O)N2CCCC2)c1 (stereo not given) | 0% | 3% | 17 | 19 | -1.7 | 2% | 1.3%
Cc1ccc(C(=O)C(SC(C)(C)C)n2cncn2)cc1 (stereo not given) | 2% | 13% | 3 | 26 | 3.1 | -2% | 0.1%
COc1ccc(-n2cc(-c3ccc(OC)c(OC)c3)[nH]c2=S)cc1 | 10% | 45µM* | 3 | -14 | 1.6 | 2% | -23%
COCCNC(=O)c1cc2nc3c(c(C(F)(F)F)n2n1)CCc1ccccc1-3 | 4%[15.4 µM] | 13% | -12 | 10 | -3.7 | 4% | nt
COc1ccc(S(=O)(=O)N2CCN(C3CCCC(C)C3)CC2)cc1 (stereo not given) | ? | -26% | 20 | -5 | 5.4 | 7% | nt
COc1ccccc1-c1oc2ccccc2c1C#CC(C)(C)O | nt | nt | -49 | -8 | nt | 2% | 3.9%
